Screens: PubChem BioAssay, National Center for Advancing Translational Sciences (NCATS)
TRPML1 blocker: qHTS for Inhibitors of the Human Mucolipin Transient Receptor Potential 1 (TRPML1); AID 624415, 2012; actives 0.02% (n = 390,000); Mucolipin-1 (Homo sapiens), Q9GZU1; activity change, negative = inhibition, % (test concentration not listed); TRPML1-inducible cells, Ca2+ dye fluorescence, FDSS; active compounds read low; inhibition of EC80 agonist-evoked calcium signal; in the data active means activity change below about -50%; inconclusive means about -30% to -50%; inactive means above about -30%;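 further: stimulus is agonist 54-4 at its EC80 concentration; on the % scale 0 is the no-effect control and ±100 the full control effect; compound concentration not given in the record; the text of the record puts the active cut at -80%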
Target sequence (Q9GZU1 whole entry, looked up): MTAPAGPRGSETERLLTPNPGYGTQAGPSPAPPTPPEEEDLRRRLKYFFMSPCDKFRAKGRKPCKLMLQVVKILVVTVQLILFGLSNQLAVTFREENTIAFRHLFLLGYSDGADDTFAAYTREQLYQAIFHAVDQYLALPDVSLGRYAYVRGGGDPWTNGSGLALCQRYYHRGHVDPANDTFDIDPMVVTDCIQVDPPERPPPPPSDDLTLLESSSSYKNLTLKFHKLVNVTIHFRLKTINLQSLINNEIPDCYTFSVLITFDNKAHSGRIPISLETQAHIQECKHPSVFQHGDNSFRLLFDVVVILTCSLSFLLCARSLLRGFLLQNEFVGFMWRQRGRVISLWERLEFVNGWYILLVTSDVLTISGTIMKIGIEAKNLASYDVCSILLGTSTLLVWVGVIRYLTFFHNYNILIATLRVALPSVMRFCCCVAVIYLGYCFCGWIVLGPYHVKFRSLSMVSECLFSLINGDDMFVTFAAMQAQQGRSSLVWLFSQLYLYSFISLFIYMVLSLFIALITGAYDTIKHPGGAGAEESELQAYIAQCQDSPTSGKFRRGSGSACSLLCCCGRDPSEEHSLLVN
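Calcium fluorescence in TRPML1-DL cells induced overnight with Tet: a 110 s read after compound pin addition, then a 110 s antagonist read after challenge with 54-4 at 4 uM final (EC80).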
D2 agonist: Beta-Arrestin HTS for Positive Allosteric Modulators of the Human D2 Dopamine Receptor: Agonists; D(2) dopamine receptor (Homo sapiens), P14416; DiscoveRx PathHunter D2 beta-arrestin, luminescence, 90 min; 100% = 57 uM dopamine signal; activation, % (concentration not given with the values); actives 0.084% (n = 360,000); in the data active = activation above about 40%; inconclusive = about 15% to 40%; inactive = below about 15%; further: compound concentration not given in the record; the text of the record calls up to 30% inactive
Target sequence (P14416 whole entry, looked up): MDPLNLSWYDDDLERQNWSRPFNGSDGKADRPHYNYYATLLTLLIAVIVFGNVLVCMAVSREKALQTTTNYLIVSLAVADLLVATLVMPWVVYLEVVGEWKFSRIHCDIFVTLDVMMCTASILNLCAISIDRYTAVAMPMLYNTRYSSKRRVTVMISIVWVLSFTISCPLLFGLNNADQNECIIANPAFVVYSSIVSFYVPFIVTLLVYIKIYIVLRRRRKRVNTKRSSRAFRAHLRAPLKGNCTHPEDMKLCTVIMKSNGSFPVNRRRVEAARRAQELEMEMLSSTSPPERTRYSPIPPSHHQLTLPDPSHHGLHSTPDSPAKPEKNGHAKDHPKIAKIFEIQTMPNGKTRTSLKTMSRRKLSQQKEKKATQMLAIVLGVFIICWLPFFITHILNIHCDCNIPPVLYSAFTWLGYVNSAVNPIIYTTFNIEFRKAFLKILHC
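Agonist mode: compounds alone added to overnight-plated D2 PathHunter cells for 90 min at 37 C, with 57 uM final dopamine (EC100) defining full response. Beta-arrestin recruitment detected by chemiluminescent reagent, read after 1 h at ambient temperature.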
TRPML1 agonist: qHTS for Agonists of the Human Mucolipin Transient Receptor Potential 1 (TRPML1). activation, % (concentration not given with the values). actives 0.12% (n = 410,000). Mucolipin-1 (Homo sapiens), Q9GZU1. AID 624414, 2012. TRPML1-expressing cells, Ca2+ dye fluorescence, FDSS; host cell line not named in the record; reference of the full effect not given here; in the data active = activation above about 50%; inconclusive = about 30% to 50%; inactive = below about 30%; further: 0% is about no effect; the text of the record puts the active cut at 80%
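In this qHTS format, compounds were pin-transferred onto Ca8-dye-loaded TRPML1-DL cells induced with Tet overnight, and intracellular Ca2+ fluorescence was recorded kinetically for 110 s after a 10 s baseline. A subsequent 4uM final 54-4 (EC80) addition followed by a second 110 s read served as the antagonist phase.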
Six1-Eya2 inh: qHTS Assay for Inhibitors of the Six1/Eya2 Interaction; AlphaScreen GST-Six1/His-Eya2 binding, biochemical; active compounds read low; control for the full effect not named in the record; actives 0.56% (n = 360,000); AID 651725, 2012; Homeobox protein SIX1 (Homo sapiens) + Protein phosphatase EYA2 (Homo sapiens), …; activity change, % (no concentration beside the values); in the data active = activity change below about -65%; inconclusive = about -30% to -65%; inactive = above about -30%; further: on the % scale 0 is the no-effect control and ±100 the full control effect
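Homogeneous AlphaScreen proximity assay pairing GST-Six1 with His-tagged Eya2 (added as 5X mix: 250 nM and 500 nM) in 50 mM Tris pH 8.0, 300 mM NaCl, 1 mM TCEP. Glutathione donor and nickel acceptor beads; 1 h, 37 °C, dark.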
PINK1 expr mod: A Quantitative High throughput Screen to Identify Chemical Modulators of PINK1 Expression | PINK1 immunofluorescence, high-content cytometry, 24 h | Potency, µM (top dose mostly 76.6 µM), without a hit: at the top dose activation (PINK1 increase), actives largely listed as activators | actives 0.2% (n = 410,000); active = well fitted activation curve with a large enough effect; inconclusive = small, poorly fitted or top-dose-only effect; inactive = flat fitted curve, though single readings scatter; cell line not stated here;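 further: potency means the concentration at half of the fitted maximal effect; % of control where 0% means no effect; nearly all actives have a fitted effect of over 65% in size; a mitochondrial uncoupler was the plate control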
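Readout is PINK1 immunofluorescence, quantified alongside mitochondrial, cell and nuclear markers by laser-scanning microplate cytometry. Cells from a stable line were exposed to compound titrations (5 concentrations) for 24 hours, with CCCP controls.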
CtBP-E1A inh: qHTS Assay for Inhibitors of the CtBP/E1A Interaction; AlphaScreen GST-E1A/His-CtBP binding, 1536-well; active compounds read low; control for the full effect not named in the record; activity change, % (no concentration beside the values); actives 0.49% (n = 340,000); in the data active means activity change below about -65%; inconclusive means about -30% to -65%; inactive means above about -30%; further: on the % scale 0 is the no-effect control and ±100 the full control effect
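Homogeneous bead-based format: GST-tagged E1A captured on glutathione donor beads, His-tagged CtBP on nickel acceptor beads; compounds precede bead addition by 2 h at 37 °C.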
* marks the source's active call; other numbers are inactive results; ? = inconclusive; . = no result given; & = joins results of further samples; [ ] = another dose, or the depositor's remark.

SMILES	TRPML1 blocker	D2 agonist	TRPML1 agonist	Six1-Eya2 inh	PINK1 expr mod	CtBP-E1A inh
CC1=CC=CC2=NC(=O)CC(C)(C(=O)N(CC(=O)NC3CCCC3)c3ccccc3C)N12 (stereo not given)	6.9	1.2	-0.3	-1.1	-0.9%	5.9
COc1ccccc1N1CCN(CC(=O)NCCc2ccc(S(N)(=O)=O)cc2)CC1	-12.7	-1.4	-0.5	-5.3	0.5%	-0.9
Cc1c(N=C(N)/N=C(\N)Nc2ccccc2)c(=O)n(-c2ccccc2)n1C	-4.5	-3.0	0.6	1.4	3.4%	3.9
Cc1cc(C)nc(SCCN2CCCCC2)n1	4.5	-5.9	-0.8	0.9	1.3%	-0.4
CCOC(=O)c1c(-c2ccccc2)csc1NC(=O)/C(C#N)=C\c1ccc(O)c(OC)c1	1.6	-1.9	1.7	-17.5	0.0%	-14.0
Cc1ccc(S(=O)(=O)N2CCN(Cc3nc4sc(C)c(C)c4c(=O)[nH]3)CC2)cc1	-6.4	1.8	-0.1	3.1	-1.6%[38.3 µM]	3.0
COc1ccc(C(=O)N/N=C/c2ccccn2)cc1	-2.5	-3.8	0.2	-26.6	-0.1%	-27.7
CN1C(=O)/C(=C\c2ccc(OC(=O)c3ccco3)cc2)SC1=S	-3.9	-4.5	0.5	-1.4	4.8%	0.3
Cc1c(Cl)cccc1NC(=S)N1CCN(c2ccc([N+](=O)[O-])cn2)CC1	-13.2	-2.9	0.6	-1.8	3.7%	.
CCCCC[C@@H](/C=C/C1C(=O)C=C[C@H]1C/C=C\CCCC(=O)O)OC(C)=O (stereo not given in full)	4.4	3.7	0.7	0.5	7.2%	1.4
COc1ccccc1CNC(=O)C1CC2Cn3c(nc4cc(Cl)c(Cl)cc43)C2N1C (stereo not given)	12.9	-0.2	-0.3	-7.6	0.0%	-0.6
COc1ccc(CN(C)C(=O)c2cnc(C)cn2)c(OC)c1OC	-8.2	-2.3	0.4	5.9	2.7%	.
CC(C(=O)Nc1ccc(C#N)cc1)N(C)CC(=O)Nc1ccccc1Br (stereo not given)	-6.7	-1.3	-0.3	-3.3	-0.1%	3.0
CC(=O)O/N=C(\N)c1ccc(-c2csnn2)cc1	-8.6	2.9	-0.1	0.5	0.0%	-16.7
COc1ccc(-c2nsc3c(N4CCCCC4C)ncnc23)cc1 (stereo not given)	39.7	0.4	3.8	33.3	5.5%	.
Cc1ccc(S(=O)(=O)N[C@@H](Cc2ccccc2)C(=O)N2CCC(C(=O)N[C@H](C(=O)O)C(C)O)CC2)cc1 (stereo not given in full)	22.6	5.4	2.0	-14.1	-1.7%	-11.3
Cn1c(COc2ccccc2)nnc1SCC(=O)c1cccc([N+](=O)[O-])c1	17.5	2.6	0.4	-5.5	-0.4%[38.3 µM]	7.0
C=CCNc1nc(N2CCOCC2)nc(N2CCOCC2)n1	12.5	0.2	-0.7	-0.4	3.5%[38.3 µM]	4.7
Cc1nn(C)c(Cl)c1/C=N/OC(=O)c1ccccc1	55.9	-0.2	-0.4	6.2	3.3%	6.5
c1cncc(CNc2ncn[nH]2)c1	.	-2.2	.	2.8	0.2%	6.1
O=C(Nc1ccc2c(c1)OCCO2)C1CCN(C(=O)c2ccccc2)CC1	10.6	-3.6	0.6	-4.1	0.6%	5.7
Cc1cc(/C=C(\C#N)C(=O)O)c(C)n1CC(C)C	9.6	1.2	0.5	0.5	-0.5%	.
CS(=O)(=O)NCCCCNc1ccc(C(F)(F)F)cc1[N+](=O)[O-]	13.1	2.3	0.4	-0.4	-0.9%	0.9
CCOc1ccc(-c2c(=O)n(OCc3ccccn3)c3ccccc3[n+]2[O-])cc1	-3.0	-1.7	-0.1	0.2	5.7%	2.1
CCOC(=O)C1=C(COC(=O)c2ccc3ccccc3c2O)NC(=O)NC1C (stereo not given)	-0.2	-0.6	1.2	1.9	0.6%	.
CC(C)Oc1ccc(N2CC(C(=O)Nc3ccccc3C(=O)NC3CC3)CC2=O)cc1 (stereo not given)	23.8	-2.9	-0.8	-1.9	2.1%	11.8
CC(C)COC(=O)N1CCN(S(=O)(=O)c2ccc3c(c2)CCC3)CC1	0.1	0.9	4.7	-0.3	-1.2%	10.0
COc1ccc(Cn2c(C(=O)O)c(CNCCc3cccs3)c3ccc(OC)cc32)cc1	10.5	.	2.9	.	1.2%	.
COc1ccc(C(CNC(=O)COc2ccc(Cl)c(C)c2)N2CCOCC2)cc1 (stereo not given)	10.4	.	0.4	.	0.7%	.
Cc1ccc(Cl)cc1N1CCN(C(c2ccc(C#N)cc2)c2nnnn2C2CCCC2)CC1 (stereo not given)	-0.1	-1.5	-0.8	-7.4	7.3%[38.3 µM]	-1.9
O=C1CC(Sc2cccs2)C(=O)N1c1ccccc1 (stereo not given)	0.5	9.4	0.3	-1.7	0.6%	-3.2
COc1ccc([N+](=O)[O-])cc1N(CC(=O)NCCSc1ccccc1)S(C)(=O)=O	-2.5	-2.2	-0.8	5.9	3.1%	3.0
CN(C)S(=O)(=O)c1ccc(NC(=O)CN2CCC(Cc3ccccc3)CC2)cc1	-5.3	-2.5	1.6	-0.3	-0.9%	.
CN(C(=O)CSc1nnc(-c2n[nH]c3ccccc23)o1)c1ccccc1	-3.0	2.5	2.9	-6.2	-0.7%	6.7
CC(C)NS(=O)(=O)c1ccc(NC(=S)NC(=O)c2cccc([N+](=O)[O-])c2)cc1	-11.3	-4.1	0.7	8.5	1.5%	0.0
CN(Cc1ccccc1)S(=O)(=O)c1ccc(OCC(=O)N2CCC(C(N)=O)CC2)cc1	-10.9	-3.9	-0.6	3.7	-0.6%	.
N#CC1=C(SCC(=O)NC2CCCCC2)NC(=O)CC1c1ccco1 (stereo not given)	-1.7	-2.1	-0.5	23.2	3.5%	0.0
COC(=O)C1=CN(C)C=C(C(=O)OC)C1c1ccccc1Cl	-24.0	-1.7	3.2	8.7	-1.5%	7.1
CCCC1(CCC)NC(=O)N(CC(=O)Nc2ccc3c(c2)OCCO3)C1=O	4.1	-2.9	-0.1	7.8	-2.9%	1.3
CCOC(=O)Nc1ccc2c(COC(=O)CNS(=O)(=O)c3cccc(Br)c3)cc(=O)oc2c1	15.5	-3.9	0.1	2.8	9.8%	2.4
CCN(CC)S(=O)(=O)c1ccc(Nc2nc3ccccc3n3nnnc23)cc1	-10.7	5.1	-0.9	-8.8	5.0%	-2.4
COc1cccc2sc3ccc(C#CC4(O)CCCCC4)cc3c(=O)c12	0.2	-0.1	-0.6	-11.0	8.5%	-8.3
CCOc1ccc2oc(C(=O)N(C)CCc3ccc(OC)c(OC)c3)c(C)c2c1	-6.4	-1.3	-0.7	-7.2	0.4%	0.6
CN(C)c1ccc(C2NCC(CCl)O2)cc1 (stereo not given)	-0.7	-0.8	-0.7	-0.2	-1.0%	-1.0
CC(=O)N1N=C(c2ccccc2)OC12CCCC2	-6.8	-3.7	0.2	3.6	1.2%	10.7
O=C(c1ccc(N2C(=O)CCC2=O)cc1)N1CCN(c2ccccc2)CC1	-1.4	-1.1	0.5	8.0	0.2%	-5.5
CCCCCC1C(=O)CCC1CC(=O)OC (stereo not given)	.	-5.6	.	5.5	-0.5%&-0.4%	13.6
Cc1ccccc1NC(=O)CC1SCCNC1=O (stereo not given)	5.7	-1.9	-0.3	2.4	1.7%	-0.2
O=C1NCCN(Cc2ccc(F)cc2)C1=O	-5.1	.	-1.2	.	-0.2%	.
Cc1ccc(NC(=O)CC2C(=O)N(Cc3ccccc3)C(=S)N2NC(=O)c2ccccc2)c(C)c1 (stereo not given)	37.2	-6.2	1.3	9.5	5.5%	-1.7
COC(=O)c1ccc(NCc2cc(O)ccc2O)cc1	26.7	8.8	0.0	-7.8	2.2%	5.7
CCN(Cc1ccccc1)S(=O)(=O)c1ccc(OC)cc1	20.0	1.2	1.2	21.2	-0.2%	18.7
O=C(NCCc1ccc(Cl)cc1)C(=O)NCC(c1cccs1)S(=O)(=O)c1ccccc1 (stereo not given)	-6.3	.	0.5	.	5.2%	.
Cc1ccc(NC(=O)NC2CCCCCCC2)c(C)c1	9.7	-2.2	-0.3	3.8	6.4%	1.5
CC(C)C(=O)Nc1ccc(NC(=O)c2cccc3c(Br)cccc23)cc1	0.6	-5.3	-0.8	-6.9	5.9%	3.8
CC(CCc1ccccc1)NC(=O)CNc1cccc([N+](=O)[O-])c1 (stereo not given)	-12.8	-5.0	-0.1	-0.2	1.5%	1.8
COc1cc(-c2nnc(SCCOc3ccc(C)c(Cl)c3)o2)cc(OC)c1OC	5.0	.	-0.9	.	1.7%	.
COc1ccccc1/C=C/C(=O)Nc1ccc2c(c1)CCC2	5.2	-0.2	-0.5	3.4	1.8%	1.4
COc1ccc(OC)c(C2=NS(=O)(=O)N(C)C(C(=O)NCc3ccco3)=C2)c1	-4.7	2.7	0.2	-5.2	-0.4%	-3.7
c1ccc2c(c1)CNc1ccccc1C2	3.9	-3.4	6.6	-4.7	-3.4%	2.3

Another view of two compounds above:
Each structure is followed by: TRPML1 blocker	D2 agonist	TRPML1 agonist	Six1-Eya2 inh	PINK1 expr mod	CtBP-E1A inh
- O=C(c1ccc(N2C(=O)CCC2=O)cc1)N1CCN(c2ccccc2)CC1
→ -1.4	-1.1	0.5	8.0	0.2%	-5.5
- CCCCCC1C(=O)CCC1CC(=O)OC (stereo not given)
→ .	-5.6	.	5.5	-0.5%&-0.4%	13.6

Remaining list, next part:
SMILES	TRPML1 blocker	D2 agonist	TRPML1 agonist	Six1-Eya2 inh	PINK1 expr mod	CtBP-E1A inh
Cc1ccc(NC(=O)N2CCC(c3nc4c(nnn4Cc4cccc(Cl)c4)c(=O)[nH]3)CC2)cc1	6.9	1.7	2.6	-14.4	?	-0.2
CNC(=O)N(O)C1N(/N=C/c2c(F)cccc2Cl)C(=S)SC1(C)C (stereo not given)	-26.2	9.2	3.2	-2.0	-0.1%	-7.5
Cc1c(C#N)c(O)n(CCO)c(=O)c1N=Nc1ccccc1	-5.4	2.8	-0.1	-3.6	?	-2.7
COCCNC(=O)C1CCCN(C(=O)c2ccc(SC(F)(F)F)cc2)CC1 (stereo not given)	-4.7	-5.1	0.3	0.8	0.5%	2.1
COc1ccc(CN(Cc2ccc(C(=O)O)cc2)C(=S)Nc2ccccc2Cl)cc1OC	-4.9	0.9	0.8	-0.3	-1.7%	5.2
Cc1cccc(C)c1NC(=O)C1c2cccc[n+]2CC(=O)N1Cc1cccs1 (stereo not given)	-13.0	-4.1	1.0	-0.8	-0.6%	.
Cc1ccc(C(=O)NCc2ccncc2)cc1S(=O)(=O)Nc1cccc(C)c1C	-0.2	-3.8	-0.4	3.9	-1.1%	7.5
CCOC(=O)Cc1csc(NC(=O)CSc2nnc(-c3cccnc3)n2Cc2ccco2)n1	6.8	2.5	3.7	-2.0	-4.7%	-0.9
